N370S GC mod – inhibitors or activators of N370S glucocerebrosidase for Gaucher disease; N370S GC spleen homogenate, 4MU-glucoside fluorescence; 330,000 compounds, 0.092% hits; Potency, µM (doses to about 59.4 µM), inactives show at the top dose activity change, negative = inhibition, usual class: inhibitors;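 also: 0% = full enzyme activity and -100% = no enzyme basal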
TDP1 block – inhibitors of human tyrosyl-DNA phosphodiesterase TDP1; Q9NUW8; recombinant TDP1, AlphaScreen DNA substrate cleavage; Potency, µM (top dose mostly 130 µM), without a hit: at the highest dose activity change, negative = inhibition, most hits filed as inhibitors; 350,000 compounds, 0.28% hits; AID 485290; also: nearly all actives have a fitted effect of over 40% in size
Target sequence (Q9NUW8 whole entry, looked up): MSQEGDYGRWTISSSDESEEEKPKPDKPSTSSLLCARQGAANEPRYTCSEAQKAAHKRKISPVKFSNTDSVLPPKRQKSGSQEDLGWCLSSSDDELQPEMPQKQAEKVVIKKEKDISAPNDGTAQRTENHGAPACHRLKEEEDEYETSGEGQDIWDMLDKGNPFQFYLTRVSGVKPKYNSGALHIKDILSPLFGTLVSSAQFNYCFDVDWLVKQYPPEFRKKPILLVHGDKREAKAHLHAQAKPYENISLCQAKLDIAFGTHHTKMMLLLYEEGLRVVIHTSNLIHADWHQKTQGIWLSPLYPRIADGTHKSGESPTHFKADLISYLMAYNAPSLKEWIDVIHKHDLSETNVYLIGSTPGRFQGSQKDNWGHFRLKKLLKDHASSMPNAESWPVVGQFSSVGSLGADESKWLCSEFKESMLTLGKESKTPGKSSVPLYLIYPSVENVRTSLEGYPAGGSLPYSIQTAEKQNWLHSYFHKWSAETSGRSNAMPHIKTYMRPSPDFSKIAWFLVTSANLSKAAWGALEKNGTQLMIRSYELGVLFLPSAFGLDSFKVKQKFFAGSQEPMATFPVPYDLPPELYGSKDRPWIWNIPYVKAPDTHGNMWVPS
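Steps: enzyme plus compound, 15 min RT; add biotin/phosphotyrosine-FITC oligonucleotide (15 nM final), react 5 min; add donor/acceptor beads (10 ug/ml final), 10 min; read AlphaScreen. Tdp1 at 1 nM final.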
The depositor's hits bear a star; ? = inconclusive; · = not tested or not shown; & = joins results of further samples; [ ] = another dose, or the depositor's remark. Calls follow the shape of the dose curve; as a rule, active = well fitted curve in the direction sought with a large enough effect; inconclusive = small, poorly fitted or top-dose-only effect, or another doubt; inactive = no such curve, though single readings can be large; an effect the other way counts as inactive or inconclusive. Unless noted, % is scaled to controls: 0 for no effect and ±100 for the full control effect; potency is read from the fitted curve at half-maximal effect.

SMILES	N370S GC mod	TDP1 block
NCCN	6.6%	2.5%
Cc1nn(CC(=O)Nc2ccccc2C(F)(F)F)c(=O)c2cccn12	1.6%	0.1%&-11.4%
COC1C=CO[C@@]2(C)Oc3c(C)c(O)c4c(O)c(c(C=NN5CCN(C)CC5)c(O)c4c3C2=O)NC(=O)/C(C)=C\C=CC(C)C(O)[C@@H](C)C(O)C(C)[C@H](OC(C)=O)C1C (some centres undefined)	?	15.8%[56.1 µM]
O=C1NC[C@@H](c2ccccc2)OC(=O)[C@H](Cc2ccc(F)cc2)CC/C=C/C[C@H]1CC(=O)N(CCO)Cc1ccccc1	·	0.6%
COc1cccc(/C=C/C(=O)c2ccc(C)c([N+](=O)[O-])c2)c1	16.3%	-3.4%
O=C(O[C@@H](C(=O)O)[C@@H](OC(=O)c1ccccc1)C(=O)O)c1ccccc1	-1.2%	1.3%&7.6%
Oc1c(I)cc(I)c2cccnc12	3.0%&0.5%	5.5%
COc1cc([C@H]2c3cc4c(cc3[C@@H](O[C@H]3O[C@H]5CO[C@@H](C)O[C@H]5[C@@H](O)[C@@H]3O)[C@@H]3COC(=O)[C@H]23)OCO4)cc(OC)c1O	-9.8%[21.6 µM]	3.0%[56.1 µM]
NCCCC[C@H](N[C@@H](CCc1ccccc1)C(=O)O)C(=O)N1CCC[C@H]1C(=O)O	4.6%	12.3%[21 µM]
CC(=O)CC(c1ccccc1)C1C(=O)Oc2ccccc2C1=O (centres undefined)	-1.2%	-4.3%
Nc1c(C(O)(C(F)(F)F)C(F)(F)F)cc(C(O)(C(F)(F)F)C(F)(F)F)c2ccccc12	-2.7%	7.5%
COC(=O)c1ccc(NC(=O)Nc2ccc([N+](=O)[O-])cc2)cc1	-7.2%	·
O=C1N=C(O)CN1/N=C/c1ccc(-c2ccc([N+](=O)[O-])cc2)o1	-2.0%	11.8%[56.1 µM]
CC/C(=C(/CC)c1ccc(O)cc1)c1ccc(O)cc1	-10.6%&-9.3%&-7.3%	0.0%
C=CCOC(=O)CCCCCCCC	-1.3%	1.8%&3.1%
C[C@@H]1C[C@@H]2[C@H]3CCC4=CC(=O)C=C[C@]4(C)[C@]3(F)[C@@H](O)C[C@]2(C)[C@@]1(O)C(=O)CO	-11.7%[21.6 µM]	9.2%[21 µM]
C[C@]12CCC(=O)C=C1CCC1C2C(O)C[C@]2(C)C1CC[C@]2(O)C(=O)CO (some centres undefined)	1.0%	3.4%
COc1c2ccoc2cc2oc(=O)ccc12	-7.8%&-4.7%&0.9%	-17.8%
CCC1=C(OC(=O)c2ccccc2)C(C)(C)C(c2ccccc2)OC1=O (centres undefined)	18.7%	0.0%
O=C1CC2(CCCC2)CC(=O)N1CCCCN1CCN(c2ncccn2)CC1	-2.3%	10.7%[56.1 µM]
NC(CO)(CO)CO	-1.3%&4.2%	4.9%&7.1%
O=C(COc1ccc(Cl)cc1Cl)Nc1noc2ccccc12	-2.3%	3.9%
CC[C@H](c1ccc(O)cc1)[C@@H](CC)c1ccc(O)cc1	9.1%[21.6 µM]	6.4%[56.1 µM]
CCN1/C(=C/c2ccc3ccccc3[n+]2CC)C=Cc2ccccc21	-2.9%	5.1%
CCC1OC(=O)C(C)[C@@H](O[C@H]2C[C@@](C)(OC)C(O)C(C)O2)C(C)[C@@H](O[C@@H]2OC(C)CC(N(C)C)C2O)[C@](C)(O)CC(C)/C(=N\OCOCCOC)[C@H](C)C(O)[C@]1(C)O (some centres undefined)	4.9%	9.6%[56.1 µM]
CC[n+]1c(/C=C/N(C)c2ccccc2)oc2ccc(F)cc21	-18.1%	5.5%
O=C(/C=C/c1ccc(Cl)c([N+](=O)[O-])c1)Nc1cccc(NC(=O)c2ccco2)c1	2.2%	0.0%
CCCCC(CC)COC(=O)C(C#N)=C(c1ccccc1)c1ccccc1 (centres undefined)	1.5%&6.5%	-4.6%&2.1%&8.2%
O=C(c1cc(COc2cccc(C(F)(F)F)c2)on1)N1CCC(c2ccccc2)CC1	-11.9%	-4.0%
Nc1c2c(nc3ccccc13)CCCC2	-2.8%	-14.7%[56.1 µM]
O=C(NC(CO)C(O)c1ccc([N+](=O)[O-])cc1)C(Cl)Cl (centres undefined)	-7.5%&-12.3%	7.2%&-2.5%
Clc1cc(Cl)c(Cl)c(Cl)c1Cl	-3.9%	0.3%&13.8%
CCN(CC)CCOc1ccc(/C(=C(\Cl)c2ccccc2)c2ccccc2)cc1	?	13.6%&10.0%[56.1 µM]
O=C1NS(=O)(=O)c2ccccc21	9.4%	3.2%
Cc1nc(=O)c(-c2ccccc2)c(C)n1-c1ccc(O)c(C(=O)O)c1	3.7%	2.1%
COCC(=O)O[C@]1(CCN(C)CCCc2nc3ccccc3[nH]2)CCc2cc(F)ccc2[C@@H]1C(C)C	-18.3%&-16.6%&-16.5%	9.1%[56.1 µM]
O=C(Oc1ccccc1)c1ccccc1O	1.8%	-13.8%
CCOC(=O)c1cc(-c2ccccc2)nc2ccc(C)cc12	17.9%	-9.6%
CCC(C)C(=O)OC1CC(C)C=C2C=CC(C)C(CCC3CC(O)CC(=O)O3)C21 (centres undefined)	10.1%	-8.5%[56.1 µM]
O=c1oc2cc(O)ccc2c2oc3cc(O)ccc3c12	17.0%&-0.2%	-2.7%
O=C(O)COCCN1CCN(C(c2ccccc2)c2ccc(Cl)cc2)CC1 (centres undefined)	-1.3%&6.2%&0.2%	8.2%
CCC1OC(=O)C(C)C(OC2C[C@@](C)(OC)C(O)C(C)O2)C(C)C(O[C@@H]2OC(C)CC(N(C)C)C2O)[C@](C)(O)CC(C)C(=NOCOCCOC)C(C)C(O)[C@]1(C)O (some centres undefined)	-8.9%	·
COc1c(Cl)cc(C(=O)Nc2ccccc2C(=O)O)cc1Cl	-12.5%	8.3%
CCCCc1oc2ccccc2c1C(=O)c1cc(I)c(OCCN(CC)CC)c(I)c1	-16.3%	10.8%
O=C(OCc1ccccc1)c1ccc(O)cc1	·	2.1%
CCOc1ccc(NC(C)=O)cc1	-0.3%	4.3%
Oc1ccc(Cl)cc1Cc1cc(Cl)ccc1O	25.1%&-2.7%&-10.4%	-2.9%&-6.4%&7.2%&9.9%
Cc1cccc(NC(=O)c2nc(S(=O)(=O)Cc3ccccc3)ncc2Cl)c1	-9.7%	6.7%
CC(=O)CCc1ccccc1	1.3%&-7.5%	5.9%
O=C1Nc2ccc(Cl)cc2C(C#CC2CC2)(C(F)(F)F)O1 (centres undefined)	2.5%&1.0%	3.1%
CC(C)(Sc1ccc(CCN(CCCCC2CCCCC2)C(=O)NC2CCCCC2)cc1)C(=O)O	-7.0%&17.7%&8.8%&-3.9%	10.2%[56.1 µM]
Cc1nn(Cc2ccccc2Cl)c(C)c1NC(=O)NC12CC3CC(CC(C3)C1)C2	2.6%	2.1%
C=CCCCCCCCCC(=O)O	-5.2%	1.0%
CC(=O)[C@]1(O)CCC2C3CCC4=CC(=O)CC[C@@]4(C)C3CC[C@]21C (some centres undefined)	5.4%	11.7%[56.1 µM]
CC1(COc2ccc(CC3SC(=O)NC3=O)cc2)CCCCC1 (centres undefined)	-4.5%&-24.4%&-0.9%	4.7%&6.1%&9.8%&10.0%
CCOC(=O)C1=C[C@@]2(CC)CCCN3CCc4c(n1c1ccccc41)[C@H]32	-0.4%	13.2%[56.1 µM]
CC#C[C@@]1(O)CC[C@H]2[C@@H]3CCC4=CC(=O)CCC4=C3[C@H](c3ccc(N(C)C)cc3)C[C@]21C	0.0%[21.6 µM]	16.1%[56.1 µM]
CCCc1cc(=O)[nH]c(=S)[nH]1	18.2%	-2.7%
c1cc(-c2ccncc2)ccn1	-16.0%	7.2%
Nc1ccc(N=Nc2ccccc2)c(N)n1	12.4%	5.8%

4 of the entries above in order of their number in N370S GC mod, descending.
mol	N370S GC mod	TDP1 block
CCCc1cc(=O)[nH]c(=S)[nH]1	18.2%	-2.7%
Nc1ccc(N=Nc2ccccc2)c(N)n1	12.4%	5.8%
CCOC(=O)C1=C[C@@]2(CC)CCCN3CCc4c(n1c1ccccc41)[C@H]32	-0.4%	13.2%[56.1 µM]
Cc1cccc(NC(=O)c2nc(S(=O)(=O)Cc3ccccc3)ncc2Cl)c1	-9.7%	6.7%

Ordered by heavy-atom count (descending): part of the list above
SMILES	N370S GC mod	TDP1 block
CCCCc1oc2ccccc2c1C(=O)c1cc(I)c(OCCN(CC)CC)c(I)c1	-16.3%	10.8%
O=C(O)COCCN1CCN(C(c2ccccc2)c2ccc(Cl)cc2)CC1 (centres undefined)	-1.3%&6.2%&0.2%	8.2%
CCOC(=O)C1=C[C@@]2(CC)CCCN3CCc4c(n1c1ccccc41)[C@H]32	-0.4%	13.2%[56.1 µM]
COc1c(Cl)cc(C(=O)Nc2ccccc2C(=O)O)cc1Cl	-12.5%	8.3%
O=C(OCc1ccccc1)c1ccc(O)cc1	·	2.1%
C=CCCCCCCCCC(=O)O	-5.2%	1.0%

Next section:
SMILES	N370S GC mod	TDP1 block
CC(NCCC(c1ccccc1)c1ccccc1)c1ccccc1 (centres undefined)	-26.2%&-5.2%	5.5%
O=c1[nH]c(=O)n([C@@H]2O[C@H](CO)[C@@H](O)[C@H]2O)cc1F	-3.3%	-2.7%[56.1 µM]
CO[C@]12C[C@@H](COC(=O)c3cncc(Br)c3)CN(C)[C@@H]1Cc1cn(C)c3cccc2c13	11.9%&-4.4%	29.1%[0.147 µM]
Cc1cccnc1	4.1%	-1.1%&-2.0%
COc1cccc(OCc2cc(C(=O)N3CCNC(=O)C3Cc3ccccc3)no2)c1 (centres undefined)	-5.3%	3.3%
C[C@]12C=CC(=O)C=C1CCC1C2C(O)C[C@]2(C)C1CC[C@]2(O)C(=O)CO (some centres undefined)	14.2%	5.3%
CC(=O)[C@H]1CC[C@H]2C3CC=C4C[C@@H](O)CC[C@]4(C)C3CC[C@]12C (some centres undefined)	1.0%	4.3%&11.0%
CN1CCCCc2c1nc1ccccc1c2N (tested in a mixture with another compound)	7.3%	3.8%
O=c1[nH]c(=O)n([C@H]2C[C@H](O)[C@@H](CO)O2)cc1F	7.9%&-9.3%&-9.0%&-8.8%	4.8%
CO[C@]12C(COC(N)=O)C3=C(C(=O)C(C)=C(N)C3=O)N1CC1NC12 (some centres undefined)	-5.8%	?
CCc1ccc(NC(=O)c2cnc(N3CCN(c4ccccn4)CC3)c3ccccc23)cc1	15.5%	4.9%
CN1CCN(C2=Nc3ccccc3Oc3ccc(Cl)cc32)CC1	-18.6%	6.0%
CS(=O)(=O)c1ccc([C@H](O)[C@H](CF)NC(=O)C(Cl)Cl)cc1	-3.0%[21.6 µM]	4.6%[21 µM]

Full records from above. Screens in order: N370S GC mod	TDP1 block
CC(=O)[C@H]1CC[C@H]2C3CC=C4C[C@@H](O)CC[C@]4(C)C3CC[C@]12C (some centres undefined) is listed with 1.0%	4.3%&11.0%
O=c1[nH]c(=O)n([C@@H]2O[C@H](CO)[C@@H](O)[C@H]2O)cc1F is listed with -3.3%	-2.7%[56.1 µM]
CCc1ccc(NC(=O)c2cnc(N3CCN(c4ccccn4)CC3)c3ccccc23)cc1 is listed with 15.5%	4.9%
CO[C@]12C(COC(N)=O)C3=C(C(=O)C(C)=C(N)C3=O)N1CC1NC12 (some centres undefined) is listed with -5.8%	?

Some of the compounds tested, and most or all hits are left out here.
